# AID504770: E. coli YBA685 growth inhibition, screen for V. cholerae RctB inhibitors; E. coli YBA685 rctB-dependent plasmid, OD600 growth, 3 h; active compounds read low; z-score (concentration not given with the values); 130,000 tested, 0.27% active;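 active = z-score under -2 on both plates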;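 note: wells of about 30 µL received 100 nL stock; score is relative to mean and SD of the test wells; the first replicate is given; strong numbers were not always called active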
# Ba CapD inh: CapD enzyme inhibition; purified CapD enzyme, fluorescence intensity read-out; active compounds read low; some hits fall short of the stated cut; z-score (concentration not given with the values); 140,000 tested, 0.23% active;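 active = z-score under -4 in either of two replicates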;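 note: stock transfer was 100 nL into about 40 µL; score is relative to mean and spread of the plate; one replicate is shown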
# Numbers without * were called inactive; i = inactive; nt = not tested or not shown; & = joins results of further samples.
SMILES,AID504770,Ba CapD inh
CC1=C(C(=O)Nc2cccc(C(F)(F)F)c2)C(c2ccccc2)C2=C(CCCC2=O)N1 (centres undefined),-0.65,-0.74
COc1ccc(C)c2sc(=NC(=O)C3CC3)n(C)c12,-1.2,nt
N=c1oc2ccccc2cc1C(=O)Nc1ccccc1,-0.2,nt
O=C(Nc1ccc(Br)cc1F)c1ccc2c(c1)OCCO2,nt,-0.34
N#C/C(=C\c1cn(-c2ccccc2)nc1-c1cc2ccccc2o1)C(N)=S,-0.3,nt
C=CCc1cccc(O)c1O,-0.05,0.625
COc1cc(C=Nc2ccc(C)c(C)c2)cc(OC)c1OC,-0.25,-0.435
CCCN1C(=O)/C(=c2\sc3nc(-c4ccccc4OC(C)=O)nn3c2=O)c2ccccc21,nt,0.195
COc1ccc(-c2nc3ccccc3c(=O)n2NCc2cc(Br)ccc2O)cc1OC,nt,-0.37
COc1ccccc1OCCSc1nc2ccccc2n1CC(O)CO (centres undefined),nt,0.61

# Compounds above that contain nitrogen in an aromatic ring, in the order listed:
SMILES,AID504770,Ba CapD inh
COc1ccc(C)c2sc(=NC(=O)C3CC3)n(C)c12,-1.2,nt
N#C/C(=C\c1cn(-c2ccccc2)nc1-c1cc2ccccc2o1)C(N)=S,-0.3,nt
CCCN1C(=O)/C(=c2\sc3nc(-c4ccccc4OC(C)=O)nn3c2=O)c2ccccc21,nt,0.195
COc1ccc(-c2nc3ccccc3c(=O)n2NCc2cc(Br)ccc2O)cc1OC,nt,-0.37
COc1ccccc1OCCSc1nc2ccccc2n1CC(O)CO (centres undefined),nt,0.61

# More records.
SMILES,AID504770,Ba CapD inh
Cc1ccc(NS(=O)(=O)c2cc(Cl)ccc2Cl)nc1,-0.15,nt
COc1ccc(/C=c2\sc3n(c2=O)C(N)=C(C#N)C(c2ccc(OC)cc2)C=3C#N)cc1 (centres undefined),0.25,-0.1
O=C1Nc2ccc(Br)cc2C1(O)Cc1ccccn1 (centres undefined),nt,0.77
COc1ccc(NC(=O)CS(=O)(=O)c2cn(Cc3cccc(F)c3)c3ccccc23)cc1,-0.1,-0.495
COc1ccc(OC)c(N2CC(O)(c3ccc(C)cc3C)[N+]3=C2SCCC3)c1 (centres undefined),nt,0.41
O=C(N/N=C/c1ccc(O)cc1)c1ccccc1CO,nt,-0.815
O=C(O)CSCC(=O)N1CCN(C(c2ccccc2)c2ccc(Cl)cc2)CC1 (centres undefined),nt,0.86
CN(C)C(=O)CN(c1ccc(Cl)cc1Cl)S(C)(=O)=O,-0.75,-0.175
Cc1nn(-c2ccccc2)nc1CNC(=O)c1cccs1,0.6,0.88
c1ccc2c(c1)nnn2CN1CCCCC1,-0.65,-0.33
CCCN1CCN(c2ncnc3sc(C(=O)Nc4ccccc4OC)c(C)c23)CC1,nt,-0.395
Cc1ccc(NCC(=O)SCc2csc(Nc3ccccc3)n2)cc1,0.15,0.15
O=C1CCCC2=C1C(c1ccncc1)c1c(nc(SCc3ccccc3)[nH]c1=O)N2 (centres undefined),0.75,46.9
Cc1noc2ncnc(SCC(=O)Nc3ccccc3Cl)c12,-0.3,-0.135
Cn1ccsc1=NC(=O)/C=C/c1cc(Cl)c2c(c1)OCCCO2,0.05,nt
O=S(=O)(c1cccc(Br)c1)N1CCN(c2ccc(C(F)(F)F)cc2)CC1,nt,0.14
O=c1c2ccc(-c3nnc(SCc4cn5ccccc5n4)o3)cc2nc2n1CCCCC2,0.4,nt
CC(=O)Nc1cccc(Oc2nnc(-c3ccccc3)c3ccccc23)c1,0.7,-0.555
CCCC12CN3CC(CCC)(CN(C1)C31C(=O)Nc3ccccc31)C2=O (centres undefined),0.75,-0.35
CC(C)Cn1c(NN)nc2ccccc21,0.05,21.4
CCNC(=O)N1CCN(C(=O)c2ccc3cc[nH]c3c2)CC1,nt,-0.535
O=C(O)c1ccccc1NCc1ccc(Cl)cc1,-0.5,88.1
CCn1cnc2sc(C(=O)Nc3ccccc3)c(C)c2c1=O,-1.1,nt
N#C/C(=C\c1ccc(-c2ccccc2Br)o1)C(=O)N1CCOCC1,1.45,nt
CCOc1c(OC)cc(C2C(C#N)=C(N)Oc3n[nH]c(-c4ccc5c(c4)OCO5)c32)cc1OC (centres undefined),nt,0.205
Cc1c(C(=O)N2CCC3(CC2)OCCO3)oc2ccc(S(=O)(=O)N3CCCCC3)cc12,0.3,0.28
S=C(Nc1cccnc1)NC(c1ccccc1)c1ccccc1,0.2,0.05
CCOC(=O)c1cnc(C(F)(F)F)nc1Nc1ccccc1,-0.3,-0.31
Cc1cccc(NC(=O)c2cnn(-c3ccc(F)cc3)c2C2CCN(C(=O)OC(C)(C)C)CC2)c1C,0.6,0.225
COc1cccc(N2C(=O)/C(=C\N3CCCCC3)C(=O)NC2=S)c1,0.55,-0.525
Cc1cc(C(=O)OCC(=O)Nc2ccccc2C#N)c(C)n1-c1ccc(F)cc1,-0.15,nt
O=C(O)CCS(=O)(=O)Cc1ccccc1F,-0.35,nt
O=C(CCC1COc2ccccc2O1)Nc1ccccc1Cl (centres undefined),1.3,-0.215
O=C1NC(c2ccc(Cl)c(Cl)c2)Sc2ccccc21 (centres undefined),nt,-0.14
C=CCOc1c(Cl)cc(C2C(C(=O)OCC)=C(C)NC3=C2C(=O)c2ccccc23)cc1OC (centres undefined),nt,-0.41
CC1CC(C)CN(C(=O)c2c[nH]c3ccc(S(=O)(=O)N(C)c4ccc(Br)cc4)cc3c2=O)C1 (centres undefined),nt,0.85
CN(CC1CC=CCC1)CC(O)c1ccccc1 (centres undefined),-0.55,-0.095
CN1C(=O)CSc2ccc(NC(=O)N3CCc4ccccc43)cc21,2,-0.24
CC(C)Sc1nnc(CSc2ncccn2)n1-c1ccc(F)cc1,1.6,-0.81
C=CCOC(=O)c1ccc2c(c1)C(=O)N(c1ccccc1)C2=O,0.55,0.25
CN(c1cccc(Cl)c1)S(=O)(=O)c1cccc(C(=O)NN2CCOCC2)c1,0.25,nt
CNc1nc2ccccc2o1,0.65,nt
Cc1cccc(C)c1NC(=O)C1(N(C)C(=O)CSc2nc3ccccc3o2)CCCCC1,-0.9,-0.25
O=C(/C=C\c1ccco1)Oc1cccc2cccnc12,-0.65,nt
CCOCCCn1c(=S)[nH]c2cc(C(=O)N3CCN(Cc4ccc5c(c4)OCO5)CC3)ccc2c1=O,nt,-0.89
O=C(COC(=O)c1ccc(S(=O)(=O)Nc2ccccc2)cc1)NCC1CCCO1 (centres undefined),-1.2,nt
COc1ccc(-c2cc(C(=O)N3CCOCC3)c3c(-c4ccc(Cl)cc4)[nH]nc3n2)cc1,-0.05,14.2
CC(=O)Nc1cc(C)ccc1OC(C)(C)C(=O)OC(C)(C)C,-1,-0.62
N#Cc1c(-c2ccc(Cl)cc2)ccnc1Oc1ccc(Cl)c(Cl)c1,nt,0.305
N#CCCN(CCc1ccccn1)S(=O)(=O)c1ccc2c(c1)CCO2,-0.05,0.255

# Five successive compounds out of the list so far, quoted:
SMILES,AID504770,Ba CapD inh
O=C(COC(=O)c1ccc(S(=O)(=O)Nc2ccccc2)cc1)NCC1CCCO1 (centres undefined),-1.2,nt
COc1ccc(-c2cc(C(=O)N3CCOCC3)c3c(-c4ccc(Cl)cc4)[nH]nc3n2)cc1,-0.05,14.2
CC(=O)Nc1cc(C)ccc1OC(C)(C)C(=O)OC(C)(C)C,-1,-0.62
N#Cc1c(-c2ccc(Cl)cc2)ccnc1Oc1ccc(Cl)c(Cl)c1,nt,0.305
N#CCCN(CCc1ccccn1)S(=O)(=O)c1ccc2c(c1)CCO2,-0.05,0.255

# (next part)
SMILES,AID504770,Ba CapD inh
CC(=O)Nc1ccc(OCC(O)Cn2ccnc2)cc1 (centres undefined),2.4,nt
N#Cc1c(-c2ccccc2)n2c(-c3ccccc3)nn(-c3ccccc3)c2nc1=O,0.45,2.54
CC(C)c1ccc(C(=O)OCC(=O)NCc2ccco2)cc1,-0.35,0.235
O=C(c1cccs1)N1CCCn2c1nc1ccccc12,-0.3,nt
O=C1NC(=S)N(c2ccc(Cl)cc2)C(=O)/C1=C/c1ccc(N2CCCCC2)o1,nt,0.34
COc1ccccc1Nc1ccc2ccccc2c1,-0.65,i
NC(=O)CCS(=O)(=O)CCN1CCN(Cc2c(F)cccc2Cl)CC1,-0.25,nt
CC(=O)Nc1ccc(C(=O)OCC(=O)NCc2ccccc2Cl)cc1,1,-0.785
O=C1CCSc2ccc(Cl)cc2N1Cc1ccc(Cl)cc1Cl,nt,-0.19
O=C(OCCN1C(=O)c2cccc3c(N4CCOCC4)ccc(c23)C1=O)c1ccccc1Br,nt,-0.315
Cc1csc2sc(C=C(C#N)C#N)c(C)c12,0.1,0.505
CCCN(Cc1nc2cc(Cl)ccc2c(=O)[nH]1)C(=S)NC,-0.35,nt
Cc1cc(C)c2c(n1)SCC(=O)N2CC(=O)NCC1CCCO1 (centres undefined),0.3,0.23
CCC(Sc1nc(N)cc(=O)[nH]1)C(=O)Nc1cccc2ccccc12 (centres undefined),0.85,nt
O=C(NCc1cccs1)c1c[nH]c2c(F)cccc2c1=O,1,nt
Fc1ccc2nc3c(nc2c1)c1ccccc1n3Cc1csc(-c2ccc(Cl)cc2)n1,nt,-0.27
CC(C)(C)C(=O)N(Cc1nc(-c2ccccc2)no1)C1CCCCC1,0.5,-0.435
O=C1CC(Cc2ccccc2)C(=O)N1c1nccs1 (centres undefined),-0.05,-0.23
Cn1c(SCc2ccccc2Cl)nnc1-c1oc2nc(-c3ccccc3)cc(-c3ccco3)c2c1N,0.8,7.5
COC(=O)c1c(C(=O)OC)c(-c2cccc(C)c2)n2c1CS(=O)(=O)C2,nt,-0.31
O=P(CCCCOc1ccccc1CP(=O)(c1ccccc1)c1ccccc1)(c1ccccc1)c1ccccc1,nt,3.37
CCOC(=O)C1=C(C)N=c2s/c(=C\c3cc(Br)ccc3OC(C)=O)c(=O)n2C1c1cccs1 (centres undefined),nt,-0.025
CCOC(=O)c1cnc2c(c(C)nn2CC)c1Cl,1.35,1.07
CCC(C(=O)Nc1cccc(Cl)c1)n1nc(-c2ccc(OC)cc2)ccc1=O (centres undefined),0.45,nt
O=C(Nc1cccc(C(F)(F)F)c1)OCc1cn(-c2ccc(Cl)cc2)nn1,nt,-0.7
CCn1c(SC)nc2ccccc2c1=O,0.1,0.505
N#CCCN(C(=O)Nc1ccccc1)c1ccccc1,0.45,0.135
COc1ccc(C2=NN3COc4ccc(Br)cc4C3C2)cc1 (centres undefined),nt,0.26
c1cc2c(cc1-c1nc3sc(-c4ccc5c(c4)OCO5)nc3s1)OCO2,-0.05,0.275
CCC(=O)N(c1nnc(SCc2ncc(-c3ccccc3)o2)s1)C1CC1,0.1,nt
CCCCSc1nnc2c(n1)OC(c1cccs1)Nc1ccccc1-2 (centres undefined),nt,0.5
N#CC(C#N)=CNc1cc(C(F)(F)F)ccc1N1CCCCC1,nt,0.795
Nn1c(SCC(=O)O)nnc1-c1ccncc1,1.2,-0.285
CSc1sc(C(=O)O)c(-c2cccs2)c1C#N,-0.65,0.345
COc1ccc(CN2C(=O)NC(=O)/C(=C\c3cc(OC)ccc3OC)C2=O)cc1,nt,1.04
Cc1ccc(NC2=NC(c3ccccc3)n3c(nc(C)cc3=O)N2)cc1 (centres undefined),-0.9,4.09
CSc1ncc(C(=O)N2CCCc3ccccc32)c(C)n1,-0.9,-0.75
CCOC(=O)c1cc(-c2cccnc2)nc2c1c(C)nn2C,1.7,nt
Cc1ccc(OS(=O)(=O)c2ccc(Cl)cc2)c(Br)c1,nt,-0.61
CCOc1ccc(NC(=O)N(CCN2CCOCC2)Cc2ccc3c(c2)CCCN3CC)cc1,-1.05,0.77
c1ccc(CCNc2ncnc3nc[nH]c23)cc1,-1.3,0.035
O=C(CSc1cccc[n+]1[O-])NC1CCCCCC1,1.45,0.175
CCOC(=O)COc1cc2c(C(=O)OCC)c(-c3ccccc3)oc2cc1Br,nt,0.99
NS(=O)(=O)c1cc(C(=O)O)c(NCc2ccco2)cc1Cl,-0.1,0.14&103
OC(CCN1CCCCC1)(c1ccccc1)c1ccccc1,0.35,-1.54&-1.12
COC(=O)c1[nH]c(COc2ncnc3ccccc23)c(C(=O)OC)c1C,-0.5,nt
CC(C)Oc1cccc(NC(=O)c2ccccc2S(C)(=O)=O)c1,nt,-0.23
O=C(O)[C@H](Cc1ccccc1)N1C(=O)c2ccncc2C1=O,1.6,-0.115
O=C(OCC1CCCO1)c1cc(F)c(F)c(F)c1F (centres undefined),0.95,0.54
Cc1cc(=O)oc2ccc(O)cc12,0.3,94.1

# (next part)
SMILES,AID504770,Ba CapD inh
COc1cc(-c2nc3ccccn3c2/N=C/c2cccc(Cl)c2Cl)ccc1O,-1.35,-0.485
C[C@H](NC(=O)c1ccco1)C(=O)Nc1ccc(S(=O)(=O)N2CCCC2)cc1,0.15,nt
Cc1ccc(NC(=S)Nc2ccc(C)cc2)cc1,0.6,0.82
O=C(OCc1ccc(Br)cc1)c1ccco1,-0.55,0.185
NC(N)=NC(N)=Nc1ccccc1C(F)(F)F,-0.8,0&0.11
CN1C2CCC1CC(NC(=O)CSc1nnc(N)s1)C2 (centres undefined),-0.3,-0.1
O=C(O)c1ccc2c(c1)ncn2C1CCCCC1,0.8,1
Oc1ccc(N=Cc2ccc[nH]2)cc1N=Cc1ccc[nH]1,0.55,18.8
O=C(O)CCC(=O)N1CC(=O)Nc2ccccc21,-0.05,0.495
O=C(Cc1ccccc1)NN1C(=O)C2C3C=CC(C3)C2C1=O (centres undefined),-0.15,nt
COc1ccc(-c2nc(-c3cccc4ccccc34)[nH]c2-c2ccc(OC)cc2)cc1,nt,43
COc1ccccc1N=Cc1ccsc1S,1.25,0.005
O=[N+]([O-])c1cc(C(F)(F)F)ccc1Oc1ccc(-c2nnco2)cc1,nt,-0.52
COC(=O)C(Cc1c[nH]c2ccccc12)NC(=O)c1cc(C)n(C)n1 (centres undefined),nt,-0.255

# Screening results as filed in PubChem.

# A portion of the library; count on the stated rates, not on these rows.
